# Rango complex inh = prevents formation of the Rango-importin beta complex; Rango CFP/YFP FRET sensor + importin beta, 45 min; Potency, µM (top dose mostly 92.2 µM), for the others: top-dose inhibition of complex formation; 0.031% of 340,000 active; AID 540263; active = rising FRET ratio curve, often small or poorly fitted; inconclusive = mostly compound fluorescence or quenching in the first reads; inactive = flat curves in all reads;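 note: potency is the fitted concentration of half-maximal effect; 0% = DMSO wells and 100% = buffer wells lacking importin beta; nearly all actives have a fitted effect of over 15% in size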
# Target sequence (Q14974 whole entry, looked up): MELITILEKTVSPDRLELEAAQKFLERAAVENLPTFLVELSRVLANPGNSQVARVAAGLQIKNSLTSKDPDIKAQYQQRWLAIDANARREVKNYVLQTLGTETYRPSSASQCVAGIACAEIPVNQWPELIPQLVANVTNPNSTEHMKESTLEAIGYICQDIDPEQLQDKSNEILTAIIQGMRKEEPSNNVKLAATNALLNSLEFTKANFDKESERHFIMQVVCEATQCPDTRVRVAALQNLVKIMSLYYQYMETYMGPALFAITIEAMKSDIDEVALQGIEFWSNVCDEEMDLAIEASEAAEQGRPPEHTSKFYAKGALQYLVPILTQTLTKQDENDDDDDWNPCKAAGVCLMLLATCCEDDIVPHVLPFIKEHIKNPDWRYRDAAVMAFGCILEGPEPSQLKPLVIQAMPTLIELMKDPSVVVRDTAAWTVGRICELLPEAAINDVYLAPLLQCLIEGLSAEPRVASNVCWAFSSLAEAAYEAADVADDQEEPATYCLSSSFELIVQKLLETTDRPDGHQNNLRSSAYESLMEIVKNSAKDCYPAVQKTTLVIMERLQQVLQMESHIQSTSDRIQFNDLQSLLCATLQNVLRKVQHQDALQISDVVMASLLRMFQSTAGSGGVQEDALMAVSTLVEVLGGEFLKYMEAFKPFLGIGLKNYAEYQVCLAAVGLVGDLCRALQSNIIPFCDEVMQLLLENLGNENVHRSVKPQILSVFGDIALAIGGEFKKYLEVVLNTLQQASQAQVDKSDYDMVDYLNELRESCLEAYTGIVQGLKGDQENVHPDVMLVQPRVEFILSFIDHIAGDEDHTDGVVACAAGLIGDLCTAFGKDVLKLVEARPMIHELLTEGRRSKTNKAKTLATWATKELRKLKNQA
#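 FRET biosensor Rango (snurportin 1 IBB between N-terminal EYFP and C-terminal Cerulean), 50 nM in PBS/1 mM DTT/0.02% Tween-20/0.1% BSA, preincubated 5 min RT with compound; 0.125 microM importin beta added, 45 min RT, CFP/YFP FRET ratio read.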
# miR-21 FLuc = miR-21 reporter, rising signal; Potency, µM (series often up to 38.3 µM), for inactives: at the highest dose reporter change, positive = more light; 340,000 tested, under 10 active; HeLa miR-21 FLuc reporter, luciferase, 48 h; active = well fitted rising curve with a large enough effect; inconclusive = small, poorly fitted or top-dose-only effect; inactive = no such curve, though single readings can be large or run the other way;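 note: % of control where 0% means no effect; miR-21 action dims this reporter so a rising signal means less miR-21 action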
#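 HeLa cells endogenously expressing miR-21, stably carrying CMV-driven firefly luciferase with a downstream miR-21 binding site, 2000 cells/well. Titrations up to approximately 40 uM, 48 hours; luciferase luminescence read.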
# Rango dissoc inh = inhibitors of RanGTP-induced Rango-importin beta complex dissociation; O95149+P62826; Biochemical FRET Rango-importin beta, RanGTP-induced dissociation; Potency, µM (titrated, usually from 46.1 µM), without a hit: at the highest dose activity change, negative = inhibition; 0.071% of 340,000 active; AID 540253; active means falling FRET ratio curve, often poorly fitted, with flat reads before Ran was added; inconclusive means other falling curves, or compound fluorescence or quenching; inactive means flat or rising ratio curve;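 note: potency is the fitted concentration of half-maximal effect; % of control where 0% means no effect; nearly all actives have a fitted effect of over 45% in size; -100% = wells without RanGTP and RCC1; the record marks most hits as doubtful in a second field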
#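 Rango/importin beta premix (0.1/0.25 uM final), PBS + 1 mM DTT + 0.02% Tween-20 + 0.1% BSA; cpd 5 min RT; FRET pre-read; + RanGTP-RCC1 (0.6 uM Ran, 2 mM GTP, 0.2 uM RCC1); 45 min RT; FRET post-read, ex 430, em 486/530 nm.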
# GLA inh pH 4.5 = blocks human alpha-galactosidase A at pH 4.5. purified enzyme, 4-MU-alpha-Gal fluorescence, pH 4.5. activity change, negative = inhibition, % at 105 µM. 230,000 tested, under 10 active. AID 1467; inconclusive = small, poorly fitted or top-dose-only inhibition, or a rising curve; inactive = flat fitted curve, though single readings scatter; no compound was filed as active;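 note: 0% = full activity with enzyme and -100% = basal without enzyme; dose as in the result columns while the protocol names 77 µM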
# Numbers without * were called inactive; ? = inconclusive; · = no result given; & = joins results of further samples.
SMILES	Rango complex inh	miR-21 FLuc	Rango dissoc inh	GLA inh pH 4.5
O=C(NCc1ccccc1)C(=O)c1cn(CC(=O)N2CCOCC2)c2ccccc12	-0.6%	-8%	-4%	·
Cc1cc(C)cc(NC(=O)Nc2ccc(N3CCCCC3)cc2)c1	-1.1%	-59%	-4%	-6
CCN(CC(=O)NCc1ccc(F)cc1)C(=O)c1cccc(S(=O)(=O)N(C)c2ccc(OC)cc2)c1	-1.1%	·	-12%	·
Cc1ccc(CS(=O)(=O)Cc2ccc(C(=O)NCCCN3CC(C)CC(C)C3)o2)cc1 (configuration not stated)	0.6%	0%	24%	·
COc1ccc(CCN(Cc2nc3ccccc3c(=O)[nH]2)C(=O)c2ccco2)cc1	0.0%	0%	-5%	-7
CCOc1ccc(-c2cc(CCCC(=O)NCCCOC)no2)cc1	1.3%	29%	-7%	-15
Cc1ccccc1NCN1C(=O)C2C3C=CC(C3)C2C1=O (configuration not stated)	0.2%	1%	-7%	7
COc1cccc(C(=O)NNC(=O)C(=O)Nc2cccc(Cl)c2C)c1	0.4%	-6%	-13%	·
COc1ccc(CN(C)C(=O)c2cnc(C)cn2)c(OC)c1OC	-0.3%	-8%	4%	·
CC(C)Cc1nnc(NC(=O)c2ccc3c(c2)OCCO3)s1	0.5%	·	1%	·
C#CCOc1ccc(CNC[C@H]2O[C@@H](n3cnc4c(N)ncnc43)[C@H](O)[C@@H]2O)cc1	-2.5%	·	7%	·
COc1ccc(C(=O)C2CCCN(C(=O)c3ccc4nccnc4c3)C2)c(C)c1 (configuration not stated)	-2.5%	-14%	-10%	·
COC1OC2COC(c3ccccc3)OC2C(OC(C)=O)C1OC(C)=O (configuration not stated)	-1.1%	·	1%	·
O=C1c2ccccc2C(O)N1Cc1ccccc1 (configuration not stated)	-4.2%	0%	-2%	-7
CCOC(=O)C(NCc1ccco1)(NC(=O)c1ccccc1)C(F)(F)F (configuration not stated)	-3.0%	-6%	-7%	6
CCOC(=O)c1c2c(n(Cc3ccccc3)c1C)C(=O)C(=O)c1ccccc1-2	0.7%	·	-8%	·
O=C(COC(=O)c1cc(-c2ccccc2)nc2ccccc12)NCC1CCCO1 (configuration not stated)	0.3%	-2%	-12%	7
C/C=C(/C)C(=O)Nc1cccc(C2=NOC3(C2)C[C@H](C(N)=O)N(C(=O)COc2ccc(Cl)cc2)C3)c1 (some centres not stated)	1.9%	29%	0%	-1
ClC(Cl)(c1nnnn1-c1ccccc1)c1nnnn1-c1ccccc1	0.2%	?	-1%	-9
COCCNC(=S)NC(=O)c1ccc(C(C)(C)C)cc1	4.0%	-40%	16%	-12
O=C(NCc1ccc2c(c1)OCO2)c1cc(-c2ccncc2)nc2ccccc12	-1.0%	14%	-5%	-5
CC(=O)C1=C(O)C(=O)N(c2ccc(O)cc2)C1c1ccccc1[N+](=O)[O-] (configuration not stated)	-6.7%	-2%	1%	·
CCOC(=O)c1ccccc1NC(=O)c1cc(S(=O)(=O)N2CCOCC2)ccc1F	-0.7%	-4%	1%	-10
COC(=O)c1ccccc1NC(=O)NN1CCN(C)CC1	0.0%	3%	-10%	·
O=C(CSc1cccc[n+]1[O-])Nc1cc(Cl)ccc1[N+](=O)[O-]	1.8%	·	-2%	·
CCOC(=O)CCCCC(=O)c1[nH]c(=O)[nH]c1CSc1nnc2c3cc(Br)ccc3n(C)c2n1	·	-9%	·	6
Cc1cc(NC(=O)CCC(=O)N(c2ccc(F)cc2)C(C(=O)NC2CCCC2)c2ccccc2)no1 (configuration not stated)	0.7%	0%	-14%	·
COC(=O)c1cc(NC(=O)CCc2c(C)nc3ncnn3c2C)cc(C(=O)OC)c1	4.1%	0%	0%	5
Cc1ccc(CNC(=O)C2CCCN(c3nc4ccsc4c(=O)s3)C2)cc1 (configuration not stated)	1.5%	0%	29%	9
CC(C)CCNC(=O)C1CC(=O)N(CCc2ccccc2)C1 (configuration not stated)	4.6%	1%	-21%	·
Cc1nc(N)sc1C(=O)N/N=C/c1c[nH]c2ccccc12	1.6%	-18%	-3%	-6
CN1CCC(N(C)S(=O)(=O)c2ccc(NC(=O)COc3ccc(Br)cc3Cl)cc2)CC1	-0.5%	·	-11%	·
Cc1cccc(OCC(=O)Nc2ccc3c(c2)nc(CN2CCCCC2)n3C)c1	?	7%&11%	0%	1
O=C(Nc1ccccc1Cl)C1CCCN(S(=O)(=O)c2ccc(F)cc2)C1 (configuration not stated)	0.7%	-8%	14%	0
CCN(CC)CCNC(=S)Nc1ccc2nc(N3CCOCC3)cc(C)c2c1	-2.6%	-9%	0%	·
Cc1cc2cc(CN3C(=O)c4ccccc4C3=O)ccc2[nH]1	3.4%	-23%	25%	-4
CCOc1ccccc1C(=O)NCC(=O)NCCc1ccc(S(N)(=O)=O)cc1	0.3%	-4%	15%	·
CN1CCN(C2=NCCO2)CC1	-0.7%	4%	6%	-19
CC(NC(=O)CCc1nnc(-c2ccc(-c3ccccc3)cc2)o1)c1nccs1 (configuration not stated)	-1.1%	26%	?	5
CCOC(=O)C1CCN(C(=O)COc2ccc(S(=O)(=O)N3CCOCC3)cc2C)CC1	6.3%	1%	4%	·
Cc1cc(C)nc(NN=C(c2ccccc2)c2ccccc2)n1	?	?	9%	-12
N#C/C(=C\c1c(F)cccc1Cl)S(=O)(=O)c1ccccn1	?	-5%	-16%	0
O=C(Nc1ccc(C(=O)N2CCCCC2)cc1)C1CCCC1	-5.2%	·	7%	·
COc1ccc(C)cc1NC(=O)CCCN1C(=O)C(c2ccccc2)Oc2cccnc21 (configuration not stated)	1.5%	3%	-6%	·
COc1ccc(S(=O)(=O)N2CCOCC2)cc1NC(=O)c1ccccc1C	0.8%	-3%	1%	·
O=S(=O)(c1ccc(Br)s1)N1CCC2(CC1)OCCO2	-1.2%	-3%	0%	·
CCOC(=O)C1=C(CS(=O)(=O)c2ccc(C)cc2)NC(=O)NC1c1ccc(O)c(OC)c1 (configuration not stated)	-0.1%	6%	26%	4
CC(=O)N1c2cc3ccccc3cc2N(C(C)=O)c2cc3ccccc3cc21	3.1%	·	-1%	·
O=C(Nc1nc2ccccc2s1)c1ccc([N+](=O)[O-])o1	-3.0%	-13%	-6%	·
CC(=O)c1c(C)n(-c2ccccc2)c2ccc(OCC(O)CN3CCOCC3)cc12 (configuration not stated)	3.2%	-15%	-8%	-2
CC(C)N(CCNCc1nnc(-c2ccccc2)o1)C(C)C	0.8%	-6%	9%	7
c1ccc(-c2cc(-c3nc4ccccc4[nH]3)c3ccccc3n2)cc1	-0.3%	17%	21%	10
CC(C)(C)c1ccc(C(=O)NC(=S)Nc2ccc(N3CCOCC3)cc2)cc1	-4.2%	3%	-15%	-26
C[C@H](NC(=O)[C@@H]1CSC2c3ccccc3C(=O)N21)C(=O)NCCc1ccc(F)cc1 (some centres not stated)	-1.4%	-1%	-6%	·
CCOc1ccc(NC(=O)CN(C)C(=O)CC2CC3CCC2C3)cc1OCC (configuration not stated)	-0.5%	-3%	3%	·
O=C(N/N=C/c1cccs1)[C@H]1C[C@@H]1c1ccccc1	-0.5%	-10%	20%	1
O=C(Nc1ccc2c(c1)OCCO2)C1CCCN(S(=O)(=O)c2cccc3nsnc23)C1 (configuration not stated)	-1.3%	4%	-12%	-3
CCCCN1C(=O)c2ccc(C(=O)Nc3ccc(C)c(S(=O)(=O)N(C)C)c3)cc2C1=O	-4.8%	6%	-5%	6
O=S(=O)(NCCCN1CCOCC1)c1ccc2ccccc2c1	3.3%	3%	2%	3
Cc1ccc(C2C(C#N)=C(N)Oc3cc(C)oc(=O)c32)o1 (configuration not stated)	-1.0%	7%	9%	-10

# A portion taken from the entries so far:
SMILES	Rango complex inh	miR-21 FLuc	Rango dissoc inh	GLA inh pH 4.5
Cc1nc(N)sc1C(=O)N/N=C/c1c[nH]c2ccccc12	1.6%	-18%	-3%	-6
CN1CCC(N(C)S(=O)(=O)c2ccc(NC(=O)COc3ccc(Br)cc3Cl)cc2)CC1	-0.5%	·	-11%	·
Cc1cccc(OCC(=O)Nc2ccc3c(c2)nc(CN2CCCCC2)n3C)c1	?	7%&11%	0%	1
O=C(Nc1ccccc1Cl)C1CCCN(S(=O)(=O)c2ccc(F)cc2)C1 (configuration not stated)	0.7%	-8%	14%	0

# (further entries)
SMILES	Rango complex inh	miR-21 FLuc	Rango dissoc inh	GLA inh pH 4.5
COc1ccccc1CCN1CCCC(CN(C)C(=O)CCC(N)=O)C1 (configuration not stated)	-4.6%	3%	13%	·
C=C(C)C(=O)OCC(C)C	-2.2%	·	-11%	·
CC(=O)c1cc2c(cc1NC(=O)Cn1cnc3ccccc3c1=O)OCO2	0.4%	·	1%	·
CCN(CC)C(=O)Cn1cnc2sc(C)c(S(=O)(=O)N3CCC(C)CC3)c2c1=O	2.7%	-1%	-5%	·
COc1cc(OC)c2c(-c3ccccc3)cc(=O)oc2c1C(CCN1CCCC(C)C1)c1ccc2c(c1)OCO2 (configuration not stated)	0.4%	?	10%	-8
Cc1cccc(C)c1NC(=O)N1CC(C)OC(C)C1 (configuration not stated)	-0.7%	3%	2%	·
C=C(C)C(=O)Nc1nnc(-c2ccccc2C)s1	4.2%	-9%	14%	7
O=C(c1cc(-c2ccc(Cl)cc2Cl)on1)N1CCOCC1	-0.1%	-2%	9%	-12
O=C(CN1CCC(O)(c2cccc(C(F)(F)F)c2)CC1)NCCc1ccccc1	1.2%	6%	24%	·
COc1ccccc1NC(=O)Nc1ccncc1	-0.7%	-2%	-2%	-1
CC1Cc2ccccc2N1S(=O)(=O)c1cnc[nH]1 (configuration not stated)	-2.2%	1%	-3%	-14
Cc1nn(C(CC(=O)O)C(=O)O)c(C)c1Br (configuration not stated)	-4.5%	-7%	-13%	0
CC1(CCCN2C(=O)c3ccccc3C2=O)OCCO1	-0.1%	·	10%	·
Cc1cccc(NS(=O)(=O)c2ccc(C(=O)N3CCCC3)cc2)c1C	2.4%	·	11%	·
O=C(Nc1cccc(-c2ccc(N3CCOCC3)nn2)c1)c1ccc(F)cc1F	0.4%	·	-7%	·
Cc1cc(C(F)(F)F)nc(Nc2nc(C)c3ccccc3n2)n1	-0.5%	-6%	-3%	-5
N#CCSc1nc2ccccc2c2nc3ccccc3n12	-2.4%	-5%	0%	-1
Cc1cc(NC(=O)CSc2nnc3ccc(-c4ccc(F)cc4)nn23)no1	1.8%	·	-3%	·
CC(C)CC(NC(=O)C(CC(C)C)NC(=O)OC(C)(C)C)C(=O)O (configuration not stated)	-2.4%	-8%	-5%	-1
Cc1ccc(NC(=O)Nc2nnc(-c3ccncc3)s2)cc1	-4.2%	9%	-1%	-7
CC(=O)c1ccc(OCC(C)Oc2ccc(C#N)cc2)cc1 (configuration not stated)	-0.2%	4%	11%	-12
Cc1onc(-c2ccccc2Cl)c1C(=O)NCc1ccccc1F	2.0%	-9%	-10%	·
O=C(NCc1ccc(N2CCCC2=O)cc1)Nc1cccc(Cl)c1	0.5%	16%	-1%	-9
O=C(O)c1cccc(C(=O)O)c1	0.0%	1%	1%	·
COc1ccc(Cl)cc1NC(=O)C12CCC(C)(C(=O)O1)C2(C)C (configuration not stated)	9.2%	-1%	-15%	-7
Cc1ccc(S(=O)(=O)NC(=O)Nc2cccc(S(=O)(=O)N(C)C)c2)cc1	-2.1%	·	19%	·
O=C(O)c1ccccc1-n1cnnn1	-3.3%	-1%	1%	3
CCCCCCCNC(=O)C1(CC2CC(c3ccc(Cl)cc3)=NO2)CCN(C(=O)CCCCCBr)CC1 (configuration not stated)	-0.4%	9%	31%	·
Cc1nc2sc(C(c3cccc(F)c3)N3CCCCC3)c(O)n2n1 (configuration not stated)	-1.5%	-5%	-5%	3

# Screening data from PubChem.

# The list is partial (hit frequency here may not be typical).
